Bioassay records deposited in PubChem BioAssay by ICCB-Longwood Screening Facility, Harvard Medical School.
PV pol inh = poliovirus RNA polymerase inhibition; P03300; poliovirus polymerase elongation, fluorescence polarization; active compounds read low; % elongation, % (compound at 16.7 µg/mL); actives 0.66% (n = 150,000); in the data active means % elongation below about 90%; further: some results filed as inactive read as strong as hits
Target sequence (P03300 1749-2209 limits assumed): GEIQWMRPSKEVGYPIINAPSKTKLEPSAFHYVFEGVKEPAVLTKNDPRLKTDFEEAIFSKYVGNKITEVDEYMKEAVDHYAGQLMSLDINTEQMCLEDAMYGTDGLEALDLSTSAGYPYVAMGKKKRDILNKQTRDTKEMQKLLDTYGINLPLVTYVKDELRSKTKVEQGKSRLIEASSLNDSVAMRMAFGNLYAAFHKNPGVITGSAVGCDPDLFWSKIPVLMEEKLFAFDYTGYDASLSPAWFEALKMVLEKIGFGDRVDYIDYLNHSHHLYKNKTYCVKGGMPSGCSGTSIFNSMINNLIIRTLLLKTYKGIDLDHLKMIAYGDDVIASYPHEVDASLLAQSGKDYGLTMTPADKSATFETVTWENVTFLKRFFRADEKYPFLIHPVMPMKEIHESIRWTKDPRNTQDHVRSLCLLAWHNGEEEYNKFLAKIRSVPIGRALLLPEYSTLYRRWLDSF
Mtb MenB inh = inhibitors of Mycobacterium tuberculosis MenB enzyme. P9WNP5. AID 540299. MenB enzyme assay, absorbance read-out; some hits fall short of the stated cut. inhibition, %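 (about 12 µg/mL by stock and volumes)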. actives 0.43% (n = 100,000);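 active means mean of two replicates above 30%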;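 further: 0% = no compound and 100% = wells with inactive enzyme; the first replicate is given; strong numbers were not always called active; inactives centre near -10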
Target sequence (P9WNP5 whole entry, looked up): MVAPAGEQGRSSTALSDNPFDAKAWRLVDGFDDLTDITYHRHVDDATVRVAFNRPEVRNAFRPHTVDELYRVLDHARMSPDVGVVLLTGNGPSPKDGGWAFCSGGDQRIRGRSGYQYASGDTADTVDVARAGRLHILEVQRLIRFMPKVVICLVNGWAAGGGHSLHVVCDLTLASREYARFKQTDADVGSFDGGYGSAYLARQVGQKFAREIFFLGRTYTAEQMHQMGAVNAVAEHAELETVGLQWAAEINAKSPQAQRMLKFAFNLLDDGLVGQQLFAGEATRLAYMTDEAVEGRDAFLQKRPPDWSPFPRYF
Mtb MbtI inh = blocks the Mycobacterium tuberculosis siderophore enzyme MbtI. P9WFX0. purified MbtI enzyme, fluorescence intensity read-out. inhibition, %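 (about 17 µg/mL by stock and volumes)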. actives 0.89% (n = 100,000). AID 493033;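 active means above 50% in both replicates, above 80% if mildly self-fluorescent; inactive means the rest, strongly fluorescent compounds included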;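 further: 0% = mean of negative and 100% = mean of positive controls; one replicate is shown; some compounds called inactive have numbers as strong as hits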
PV pol inh intensity = further read-out of PV pol inh, marked with its call; % elongation; measured here: total intensity read-out; formula for this scale not given here;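 total fluorescence in place of polarization; lower means less elongation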
* marks the source's active call; other numbers are inactive results; · = no result given; & = joins results of further samples.

Value order: PV pol inh	PV pol inh intensity	Mtb MenB inh	Mtb MbtI inh
- COc1ccc(C(=O)Nc2ccc3nc(N4CCN(C)CC4)cc(C)c3c2)c(OC)c1
 : 100.0	96.0	0.0	5.8
- Nc1cc2c(cc1C(=O)O)OCO2
 : 101.0	99.0	-16.8	112.9
- O=C(O)/C=C/c1ccc(-n2ccnc2)cc1
 : 103.0	106.0	6.5	3.0
- O=C(CCC1CCCC1)Nc1ccc2c(c1)OCO2
 : 100.0	102.0	8.0	-6.8
- CCNc1nc(N)c(C(=O)c2ccc(Cl)s2)s1
 : 100.0	106.0	-176.6	4.0
- Cn1c(Cl)c(CN)c2ccccc21
 : 105.0	100.0	1.3	·
- Cc1ccc(-c2nn(C)c(=O)c3ccccc23)cc1CNC(=O)CSc1nc2ccccc2s1
 : 102.0	98.0	-7.9	-96.9
- CC1(C)Cc2c(c(N3CCCCC3)nc3sc(C#N)c(N)c23)CO1
 : 104.0	104.0	-16.0	42.8
- CCCCN(Cc1cc2ccccc2[nH]c1=O)S(=O)(=O)c1ccccc1
 : 100.0	102.0	-6.1	12.2
- CCOC(=O)C1C(=O)N(C(=O)c2cncc(Br)c2)CC1c1ccccc1 (configuration not stated)
 : 101.0	103.0	-11.8	-16.3
- O=C1/C(=C/c2ccco2)CCC1C1CCCC1 (configuration not stated)
 : 101.0	99.0	-38.2	4.2
- CNC(=O)CCc1nc(-c2ccc(OC)cc2)no1
 : 100.0	100.0	-1.9	-11.2
- C=CCn1c(=NC(=O)c2ccco2)sc2cccc(OCC)c21
 : 102.0	104.0	-6.8	-17.7
- Nc1nnc(CSCc2ccccc2)s1
 : 101.0	101.0	22.7	-4.5
- NS(=O)(=O)c1cc2c(cc1Cl)NC(C(Cl)Cl)NS2(=O)=O (configuration not stated)
 : 99.0&100.0	101.0&102.0	-3.1&10.1	-4.0&-19.6
- COC(=O)c1ccc(/C=C(\C#N)C(=O)NC2CCCCC2)cc1
 : 97.0	104.0	6.8	8.6
- Cc1nc2ccc(S(=O)(=O)N3CCCCC3)cc2s1
 : 99.0	103.0	-0.5	-3.8
- Brc1cccc(-c2nnc3sc(CNCc4ccc5c(c4)OCO5)cn23)c1
 : 103.0	102.0	-10.7	10.2
- S=C(Nc1ccccc1)N1CCCN1c1ccccc1
 : 102.0	106.0	-2.0	8.4
- CCOC(=O)C1=C(O)/C(=C/c2cccs2)SC1=NC(=O)c1ccc(C)cc1
 : 101.0	102.0	-20.7	-3.1
- O=C(Nc1ccccc1)C(=S)NC1CCCC1
 : 99.0	101.0	-22.6	21.9
- NC(=O)c1sccc1Cl
 : 102.0	104.0	4.3	-1.5
- Cc1ccc(N2CC34C=CC(O3)C(C(=O)O)C4C2=O)cc1 (configuration not stated)
 : 101.0	105.0	-8.9	24.4
- NC(=S)c1cnn2c(C(F)(F)F)cc(C(F)(F)F)nc12
 : 97.0	93.0	-62.9	22.8
- O=C(O)CCC(=O)c1ccc2c(c1)CCCC2
 : 105.0	103.0	0.3	1.7
- CCc1ccc(/C=C2\Sc3ccccc3N(CC(=O)O)C2=O)cc1
 : 101.0	106.0	-12.3	-4.8
- CC(=O)N(Cc1cccnc1)Cc1cc2cc3c(cc2n2nnnc12)OCO3
 : 100.0	101.0	1.5	88.0
- Nc1nc2cc(S(=O)(=O)N3CCOCC3)ccc2o1
 : ·	·	1.8	25.0
- CN1C(=O)CC(N2CCN(Cc3ccccc3)CC2)C1=O (configuration not stated)
 : 99.0	101.0	-20.7	-6.2
- S=c1[nH]nc(Cc2ccsc2)n1Cc1ccccc1
 : 106.0	107.0	-4.9	32.9
- c1ccc(Nc2ccc(-n3ccnc3)nn2)cc1
 : 103.0	110.0	4.0	-3.5
- Nc1cc(N)c2cc(-c3ccccc3)oc2c1
 : 87.0*	93.0*	-28.8	116.7
- Cc1ccccc1/C=N/NC(=O)Cc1cn2ccsc2n1
 : 102.0	103.0	5.3	4.7
- Cc1ccc(CNC(=O)c2ccc3nc[nH]c3c2)cc1
 : 101.0	104.0	5.6	-7.2
- CCCCC(=O)N1CCN(c2ccc(C(=O)CC)cc2F)CC1
 : 102.0	102.0	2.0	-8.4
- CN1CCN(C(=O)CNS(=O)(=O)c2ccccc2)CC1
 : 106.0	101.0	-4.2	·
- O=C1CC(c2ccccc2F)C2=C(CC(c3ccc(F)cc3)CC2=O)N1 (configuration not stated)
 : 103.0	102.0	-16.3	3.1
- O=C(O)c1ccccc1SCc1ccc2c(c1)OCO2
 : 96.0	100.0	-8.9	6.3
- COc1ccc(OCCc2nnc(N)s2)cc1
 : 103.0	102.0	-17.4	-3.5
- Cc1cc(S(=O)(=O)NCCC2=CCCCC2)ccc1-n1cnnn1
 : 104.0	102.0	-16.3	-6.6
- CC(C)(/C=N/O)/[N+]([O-])=C/c1ccccc1
 : 101.0	100.0	20.8	22.3
- Cc1cccc(S(=O)(=O)N2CCCC2)c1
 : 101.0	102.0	-9.4	-3.8
- O=C(Nc1ccccn1)C1COc2ccccc2O1 (configuration not stated)
 : 100.0	102.0	-7.2	-12.1
- CNC(=O)c1ccc(N2CCc3ccccc32)s1
 : 100.0	99.0	-1.1	12.1
- CCOC(=O)c1cc(NC(=O)c2ccc(OC)cc2)c(=O)n2c1oc1ccccc12
 : 101.0	103.0	-1.6	-2.5
- COCCN1C(=O)/C(=C/N2CCN(S(=O)(=O)c3ccc(Cl)cc3)CC2)C(=O)NC1=S
 : 107.0	110.0	-18.0	13.8
- CC(=O)NCCc1ccc(C(=O)CSc2nnc3n2CCCCC3)cc1
 : 104.0	108.0	-10.4	6.4
- OC1(C2(O)CCCCC2)CCCCC1
 : 102.0	104.0	·	-2.8
- N#Cc1c(-c2ccc(Cl)cc2)csc1S(=O)C1CCCCC1 (configuration not stated)
 : 104.0	109.0	-17.0	-7.2
- Nc1c(-c2nc3ccccc3[nH]2)nnn1Cc1ccccc1
 : 104.0	107.0	·	-3.1
- FC(F)(F)CCSc1nnc(-c2cccs2)n1-c1ccccc1
 : 105.0	99.0	-20.9	-22.1
- CSc1nc2ccccc2n1C
 : 101.0	95.0	·	-2.5
- O=c1oc2ccc(NS(=O)(=O)c3cccc4ccccc34)cc2s1
 : 101.0	105.0	0.0	22.5
- Cc1[nH]c2ccccc2c1C(Nc1ccccc1C(F)(F)F)c1ccccn1 (configuration not stated)
 : 100.0	98.0	-10.2	1.4
- C=CCSc1c2c(c(C#N)c3nc4ccccc4n13)CCC2
 : 98.0	118.0	-22.9	4.9
- CC12CN(Cc3ccccc3)CC(C)(CN(Cc3ccccc3)C1)C2=NO
 : 109.0	114.0	-2.0	·
- Cc1ccccc1CO/N=C\c1[nH]ncc1Br
 : 105.0	99.0	16.1	2.1
- CC1(C)CCc2cc(-c3ccn(C(=O)c4ccc(Cl)cc4)n3)ccc2O1
 : 107.0	111.0	-17.0	84.9
- CC1CCc2cc(F)ccc2N1Cc1nnc(-c2ccccc2)o1 (configuration not stated)
 : 100.0	102.0	-33.4	-2.1
- Cc1nn(CC(=O)N2CCc3ccccc32)c(C)c1S(=O)(=O)N(C)C
 : 101.0	106.0	3.8	36.5

Additional entries.
Value order: PV pol inh	PV pol inh intensity	Mtb MenB inh	Mtb MbtI inh
- COC(=O)CN1C(=O)c2cccnc2Oc2ccc(C)cc21
 : 102.0	104.0	-31.8	-4.8
- Cc1ccccc1NC(=O)NCCc1ccccc1
 : 100.0	104.0	12.1	2.1
- Cc1cc(=O)oc2cc(OC(=O)C(C)N3C(=O)CCC3=O)ccc12 (configuration not stated)
 : 94.0	101.0	5.0	·
- CCc1ccc(-c2cn3c(n2)sc2cc(C(=O)O)ccc23)cc1
 : 102.0	101.0	-20.2	3.0
- Cc1ccccc1CN1CCN(C2c3ccccc3-c3ccccc32)CC1
 : 102.0	98.0	-25.3	-4.3
- O=C(NCC1CC2CCC1C2)c1n[nH]c(=O)c2ccccc12 (configuration not stated)
 : 100.0	103.0	-8.2	7.6
- CC[C@@]1(O)C[C@H](O[C@H]2C[C@H](N(C)C)[C@H](O)[C@H](C)O2)c2c(cc3c(c2O)C(=O)c2c(O)ccc(O)c2C3=O)[C@H]1C(=O)OC
 : 65.0	190.0	3.1	-6.0
- O=C(Oc1ccc2oc3ccccc3c2c1)c1ccc(=O)[nH]c1
 : 100.0	98.0	-13.0	12.4
- O=C(O)/C=C/C(=O)Nc1nnc(-c2ccccc2F)s1
 : 104.0	99.0	-37.2	22.2
- S=C(Nc1ccc(Oc2ccccc2)cc1)N(CCN1CCCCCC1)Cc1ccco1
 : 100.0	101.0	9.6	9.1
- CC(Nc1nc(N2CCCC2)nc2ccccc12)c1ccccc1 (configuration not stated)
 : 100.0	104.0	13.6	83.1
- COc1ccc(-n2c(-c3ccc(Cl)cc3)n[nH]c2=S)cc1
 : 103.0	107.0	-13.0	4.3
- NC(=O)c1cccn1Cc1ccc(Cl)cc1
 : 103.0	100.0	-1.9	-3.0
- Oc1ccc(Cl)cc1C1=NOC(O)(C(F)(F)F)C1 (configuration not stated)
 : 101.0	101.0	8.7	-4.8
- O=S(=O)(c1ccccc1)N(Cc1ccc(Cl)cc1)c1nccs1
 : 111.0	112.0	-33.5	4.7
- Cc1cc(C)n(Cc2c(C(=O)O)noc2C)n1
 : 104.0	105.0	-12.1	-11.6
- CCC(Sc1nnnn1-c1ccccc1)C(=O)Nc1sc2c(c1C#N)CCCC2 (configuration not stated)
 : 101.0	105.0	-32.6	10.8
- COc1cccc(N2CC(=O)N(N)CC2=O)c1
 : 103.0	104.0	-5.3	-5.5
- CCc1ccc(C2=NN(C(=O)CCC(=O)O)C(c3ccco3)C2)cc1 (configuration not stated)
 : 98.0	103.0	-6.7	0.5
- CC(CN1CCN(Cc2ccccc2)CC1)N(C(=O)c1ccc(C(C)(C)C)cc1)c1ccccn1 (configuration not stated)
 : 96.0	85.0	-9.4	-0.7
- CN1CCN(c2nnc(-n3cccc3CNCCCN3CCOCC3)s2)CC1
 : 103.0	105.0	7.2	29.9
- CN(C)C(=O)NCc1ccc(Cl)cc1
 : 101.0	102.0	-28.7	-7.3
- N#CCc1nnc2n1-c1ccccc1SC2
 : 103.0	107.0	·	-8.3
- CCOc1ccc(NC(=O)c2ccnc(N3CCC(C(=O)N4CCOCC4)CC3)c2)cc1
 : 104.0	98.0	-24.5	-0.8
- O=C(NCc1ccco1)c1ccccc1OCc1ccc(Cl)cc1
 : 96.0	99.0	-20.1	-4.4
- O=S(=O)(CS(=O)(=O)c1cccc(Cl)c1)c1cccc(Cl)c1
 : 104.0	107.0	-6.8	1.5
- COc1ccccc1N=Cc1c(O)n(-c2ccccc2OC)c(=O)[nH]c1=O
 : 100.0	98.0	-12.0	·
- Sc1ccc2oc3ccc(S)cc3c2c1
 : 100.0	101.0	-4.8	36.1
- O=C(Cn1cnnn1)Nc1ccc(Cl)c(Cl)c1
 : 98.0	94.0	-1.7	19.9
- CC1(C)C2CCC1(C)C(NC(=O)c1cccc(C(F)(F)F)c1)C2 (configuration not stated)
 : 104.0	108.0	-3.3	-9.6
- COc1ccccc1N1C(N)=NC(N)=NC12CCCCC2
 : 102.0	103.0	-22.2	14.7
- CN(c1ccc(C(=O)CSc2nnc(-c3ccco3)n2C2CCCCC2)cc1)S(C)(=O)=O
 : 115.0	106.0	-43.7	-2.9
- OC1CCSc2ccc(Cl)cc21 (configuration not stated)
 : 102.0	96.0	-20.8	7.8
- O=C(COC(=O)c1ccco1)NCc1ccccc1
 : 100.0	106.0	4.7	-7.0
- O=C(COC(=O)C1(c2ccc(F)cc2)CCCC1)NC1CCCC1
 : 99.0	98.0	·	-8.3
- COC(=O)c1c(-c2ccccc2)csc1-n1c(C)ccc1C
 : 101.0	96.0	-2.8	9.7

15 entries from above, tab-delimited:
Structure	PV pol inh	PV pol inh intensity	Mtb MenB inh	Mtb MbtI inh
CCc1ccc(C2=NN(C(=O)CCC(=O)O)C(c3ccco3)C2)cc1 (configuration not stated)	98.0	103.0	-6.7	0.5
CC(CN1CCN(Cc2ccccc2)CC1)N(C(=O)c1ccc(C(C)(C)C)cc1)c1ccccn1 (configuration not stated)	96.0	85.0	-9.4	-0.7
CN1CCN(c2nnc(-n3cccc3CNCCCN3CCOCC3)s2)CC1	103.0	105.0	7.2	29.9
CN(C)C(=O)NCc1ccc(Cl)cc1	101.0	102.0	-28.7	-7.3
N#CCc1nnc2n1-c1ccccc1SC2	103.0	107.0	·	-8.3
CCOc1ccc(NC(=O)c2ccnc(N3CCC(C(=O)N4CCOCC4)CC3)c2)cc1	104.0	98.0	-24.5	-0.8
O=C(NCc1ccco1)c1ccccc1OCc1ccc(Cl)cc1	96.0	99.0	-20.1	-4.4
O=S(=O)(CS(=O)(=O)c1cccc(Cl)c1)c1cccc(Cl)c1	104.0	107.0	-6.8	1.5
COc1ccccc1N=Cc1c(O)n(-c2ccccc2OC)c(=O)[nH]c1=O	100.0	98.0	-12.0	·
Sc1ccc2oc3ccc(S)cc3c2c1	100.0	101.0	-4.8	36.1
O=C(Cn1cnnn1)Nc1ccc(Cl)c(Cl)c1	98.0	94.0	-1.7	19.9
CC1(C)C2CCC1(C)C(NC(=O)c1cccc(C(F)(F)F)c1)C2 (configuration not stated)	104.0	108.0	-3.3	-9.6
COc1ccccc1N1C(N)=NC(N)=NC12CCCCC2	102.0	103.0	-22.2	14.7
CN(c1ccc(C(=O)CSc2nnc(-c3ccco3)n2C2CCCCC2)cc1)S(C)(=O)=O	115.0	106.0	-43.7	-2.9
OC1CCSc2ccc(Cl)cc21 (configuration not stated)	102.0	96.0	-20.8	7.8
